Assay outcomes: PubChem BioAssay, Sanford-Burnham Center for Chemical Genomics
MT1-MMP reporter – inhibitors of MT1-MMP promoter transcription, cell-based, luciferase reporter, luminescence (AID 618); MT1-MMP promoter luciferase reporter cells, luminescence; calls from a first round at 10 µM; hits with a dose series show EC50 in µM; 87,000 compounds, 0.62% hits;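 active = over half of the reporter light lost at 10 µM or EC50 under 50 µM; inactive = the rest and hits that failed the dose series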;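 note: actives suppress MT1-MMP promoter-driven transcription so potencies describe inhibitors; HT1080 fibrosarcoma cells; overnight exposure; toxic or luciferase-blocking compounds were not removed from the actives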
Calls only; i = inactive; + = active, no number. The list is partial (hit frequency here may not be typical).

SMILES	MT1-MMP reporter
CC(C)NC(=O)[C@@H]1C[C@@]1(C)[C@@H](NC(=O)OCc1ccccc1)c1ccccc1	i
Cc1nnc(NC(=O)c2ccc3c(c2)C(=O)N(CCC(C)C)C3=O)s1	i
O=C(NCc1ccccc1)c1ccc(-c2ccc(F)cc2)o1	i
CN1CCN(CC(=O)NC2CCCCC2)CC1	i
CCOC(=O)C1CCN(Cc2coc3c(Cl)cc(Cl)cc3c2=O)CC1	i
COC(=O)C1=C(C)NC(=O)/C1=C\c1cc(C)n(-c2c(C)cccc2C)c1C	i
CC(C)n1c(-c2ccccc2F)n[nH]c1=S	i
Cc1ccoc1C(=O)Nc1cccc(Oc2ccccc2)c1	i
O=C(c1cnccn1)N(Cc1ccco1)C1(C(=O)NC2CCCCC2)CCCCC1	i
COC(CNC(=O)c1ccc(Cn2c(=S)[nH]c3cc4c(cc3c2=O)OCO4)cc1)OC	i
COc1cccc(NC(=O)CC2COc3ccccc3O2)c1 (stereo not drawn)	i
Cc1cc(C)c(C#N)c(SCSCc2ccccc2)n1	i
COc1ccc(NC(=O)CCS(=O)(=O)c2ccc3c(c2)CCCN3C(C)=O)cc1Cl	i
O=C(Nc1ccccc1C(=O)N1CCOCC1)c1cccnc1	i
CC1=C(C(=O)OCc2ccccc2)C(c2cccc([N+](=O)[O-])c2)NC(=O)N1CCCCCC(=O)O (stereo not drawn)	i
CN1CCc2[nH]c3ccc(C(=O)NN)cc3c2C1	i
CCOc1ccc(CCNC(=O)c2ccc(N3CCCC3=O)cc2)cc1OCC	i
Fc1ccc(Nc2nc(Oc3ccccc3F)nc(N3CCCC3)n2)cc1	i
COCc1nnc(NC(=O)CCN2C(=O)c3ccccc3C2=O)s1	i
CCOc1cccc2cc(-c3csc(NC(=O)CCC(=O)N4CCC(C)CC4)n3)c(=O)oc12	i
O=C(c1cc2ccccc2oc1=O)N1CCN(c2ncccn2)CC1	i
CC1=C(C(=O)OCc2ccccc2)C(c2ccccc2)NC(=O)N1CCCC(=O)O (stereo not drawn)	i
CCCCCCN(C(=O)CCCCCN1C(=O)NC(c2ccc(-c3ccccc3)cc2)C(C(=O)OCc2ccccc2)=C1C)C(C(=O)NCCCC)c1ccc(O)cc1 (stereo not drawn)	i
Cn1c(N)c(C(=O)COC(=O)c2cc(C3CC3)nc3ccccc23)c(=O)n(Cc2ccccc2)c1=O	i
O=S(=O)(c1ccc(F)cc1)N1CCC(N2CCCCCC2)CC1	i
Further records follow.
SMILES	MT1-MMP reporter
COC(=O)[C@@H]1C[C@@]2(O)[C@@H](O)[C@@H](O)[C@@H](O)C[C@H]2N1Cc1ccc(C(F)(F)F)cc1	i
O=C(CSCc1ccc(Cl)cc1)N1CCCCC1	i
COc1cc2c(cc1OC)C(C(=O)N1CCN(c3ccccc3)CC1)C(c1cccs1)N(C)C2=O (stereo not drawn)	i
O=S(=O)(NC1CCCCC1)c1ccc(F)c2ccccc12	i
COc1ccc(NC(=O)c2cccc(N3C(=O)NC4CC3(C)Oc3ccccc34)c2)cc1 (stereo not drawn)	i
O=C(CCCn1c(=O)[nH]c2cc(Cl)ccc2c1=O)NCCC1=CCCCC1	i
CC1C/C(=N/O)C(C)CN1 (stereo not drawn)	i
N#CC1(Nc2ccccc2)C(=O)Nc2ccccc21 (stereo not drawn)	i
COC(=O)[C@@]1(Cc2ccc(OC)cc2)[C@H]2c3cc(C(=O)N4CCCC4)n(CCc4ccc(O)c(O)c4)c3C[C@H]2CN1C(=O)c1ccccc1	i
CCOC(=O)C1=C(C)NC(=O)NC1c1ccsc1 (stereo not drawn)	i
COC(=O)c1ccc(C(NC(=O)OCc2ccccc2)/C(C)=C/[C@@H](C)C(=O)NCc2cc(F)cc(F)c2)cc1 (stereo partly drawn)	i
CC1CCN(S(=O)(=O)c2ccc(C(=O)OCc3ccc4c(c3)OCO4)cc2)CC1	i
COC(=O)[C@@]1(Cc2ccccc2)[C@H]2c3cc(C(=O)N(C)C)n(C[C@H](O)CO)c3C[C@H]2CN1C(=O)c1ccccc1	i
Cc1ccc(Cn2ccc(=O)c(OCc3ccccc3)c2C)cc1	i
CCCCNc1nc(=S)[nH]c2cc(OC)c(OC)cc12	i
Cc1occc1C(=O)NCCCCc1ccccc1	i
O=C(CSc1oc(-c2cccs2)nc1S(=O)(=O)c1ccccc1)NC1CCCCC1	i
COCCNC(=O)[C@H]1C[C@@H]1[C@H](NP(=O)(c1ccccc1)c1ccccc1)c1ccccc1	i
CCCC1=Nc2cc(C(=O)NCCCOCC)ccc2Sc2ccccc21	+
COC(=O)c1cccc(C23CC4(C2)[C@H](CN(C)[C@@H]4c2ccccc2)C3c2ccccc2)c1 (stereo partly drawn)	i
O=C(Cn1nnc(-c2ccccc2)n1)Nc1ccc2c(c1)OCO2	i
O=C(CSc1nc2c(sc3ccccc32)c(=O)n1Cc1ccccc1)NCC1CCCO1 (stereo not drawn)	i
CC1=CC(C)(C)NC(=S)N1c1ccc2ccccc2c1	i
N/C(Cc1cccs1)=N\OC(=O)COc1ccccc1Cl	i
Cc1nnc(C)n1/N=C/c1ccc(O)cc1	i

Some of these compounds in order of heavy-atom count, high to low.
SMILES	MT1-MMP reporter
COC(=O)[C@@]1(Cc2ccccc2)[C@H]2c3cc(C(=O)N(C)C)n(C[C@H](O)CO)c3C[C@H]2CN1C(=O)c1ccccc1	i
COc1cc2c(cc1OC)C(C(=O)N1CCN(c3ccccc3)CC1)C(c1cccs1)N(C)C2=O (stereo not drawn)	i
CC1CCN(S(=O)(=O)c2ccc(C(=O)OCc3ccc4c(c3)OCO4)cc2)CC1	i
O=C(Cn1nnc(-c2ccccc2)n1)Nc1ccc2c(c1)OCO2	i

Next results follow:
SMILES	MT1-MMP reporter
Cc1ccc(-c2noc(CCCOc3ccc(Cl)cc3Cl)n2)cc1	i
COC(=O)c1cccc(Nc2ncnc3ccc(C)cc23)c1	i
COC(=O)CC1SC(=O)NC1=Nc1cccc(C)c1 (stereo not drawn)	i
C[C@@H](C(=O)Nc1ccc2ccccc2c1)[C@@H]1C[C@@]1(C)[C@@H](NC(=O)c1ccccc1)c1ccccc1	i
O=C(CC1(O)C(=O)Nc2ccccc21)c1ccccc1O (stereo not drawn)	i
Cc1nc(N2CCN(C)CC2)c2c(C)c(C(=O)Nc3ccc(C)c(F)c3)sc2n1	i
COc1ccc([N+](=O)[O-])cc1N(CC(O)Cn1nnc2ccccc21)S(=O)(=O)c1ccc(C)cc1 (stereo not drawn)	i
c1ccc(-c2ccc(CN3C[C@@H]4C(c5ccccc5)C5(c6cccnc6)CC4(C5)[C@H]3c3ccccc3)cc2)cc1 (stereo partly drawn)	i
COC(=O)[C@@]1(Cc2ccc(OC)cc2)[C@H]2c3cc(C(=O)N(C)C)[nH]c3C[C@H]2CN1C(=O)c1ccccc1	i
CC(CN1CCOCC1)c1ccccc1 (stereo not drawn)	i
Cc1ccc(-c2noc(CSc3ccccc3)n2)cc1	i
Cc1ccc(CNC(=O)c2cn(C)c(=O)c3c2c2ccccc2n3C)o1	i
CCCCN(C)C(=O)c1cn(CC)c2nc(C)ccc2c1=O	i
CC(C)C(=O)N1CCN(c2ccc(NC(=O)c3ccc4c(c3)OCCO4)cc2Cl)CC1	i
Cc1ccc(NCc2cccnc2)cc1	i
CCCNC(=O)NCc1ccc(N2CCCC2=O)cc1	i
COc1cccc(Nc2nc(-c3ccc(O)cc3)cs2)c1	i
CNC(=O)CCCc1nc(-c2ccccc2Cl)no1	i
N/C(=N\c1nc2ccccc2o1)NC(=O)c1ccccc1	i
CCC1=Nc2cc(C(=O)NCCCOC(C)C)ccc2Sc2ccccc21	i
COC(=O)c1ccc(C(NC(=O)OCc2ccccc2)/C(=C/[C@@H](C)C(=O)NCc2cccnc2)c2cccnc2)cc1 (stereo partly drawn)	i
Cc1c(CCOC(=O)C2C3CC4CC(C3)CC2C4)sc[n+]1CC(=O)c1ccc(Br)cc1 (stereo not drawn)	i
CC(=O)C1=C(C)NC(SCC(N)=O)=C(C#N)C1c1sccc1C (stereo not drawn)	i
CCOC(=O)c1c(NC(=O)CCc2ccc(CC)o2)sc(C)c1C	i
COc1ccc(N2C(=O)CC(N3CCC(O)(c4ccc(Br)cc4)CC3)C2=O)cc1 (stereo not drawn)	i

Given field by field: 4 of the compounds above.
CNC(=O)CCCc1nc(-c2ccccc2Cl)no1
  MT1-MMP reporter: i

N/C(=N\c1nc2ccccc2o1)NC(=O)c1ccccc1
  MT1-MMP reporter: i

CCC1=Nc2cc(C(=O)NCCCOC(C)C)ccc2Sc2ccccc21
  MT1-MMP reporter: i

COC(=O)c1ccc(C(NC(=O)OCc2ccccc2)/C(=C/[C@@H](C)C(=O)NCc2cccnc2)c2cccnc2)cc1 (stereo partly drawn)
  MT1-MMP reporter: i

The list goes on.
SMILES	MT1-MMP reporter
CCOC(=O)N1CCN(C2CC(=O)N(c3ccc(Oc4ccccc4)cc3)C2=O)CC1 (stereo not drawn)	i
COC(=O)c1ccc(C(NC(=O)OCc2ccccc2)/C(F)=C/[C@@H](C)C(=O)NCc2ccc(-c3ccccc3)cc2)cc1 (stereo partly drawn)	i
COc1ccc(-c2nn(-c3ccccc3)cc2C#N)cc1	i
COC(=O)[C@@H]1C[C@@]2(O)[C@H](O)[C@H](O)[C@H](O)C[C@H]2N1Cc1ccc(C(F)(F)F)cc1	i
COc1ccc(OCC#CCNC(C)(C)C)cc1	i
CCOC(=O)C1=C(C)N(CCCC(=O)O)C(=O)NC1c1ccccc1OS(=O)(=O)c1ccc([N+](=O)[O-])cc1 (stereo not drawn)	i
Cc1ccc(-c2nn(CC(=O)NCc3cc(-c4nn(C)c(=O)c5ccccc45)ccc3C)c(=O)c3ccccc23)cc1	i
COc1cc(NC(=O)NS(=O)(=O)c2ccc(C)cc2)cc(OC)c1	i
CCC(C)NC(=O)Cc1cn(C)c2ccccc12 (stereo not drawn)	i
COc1ccc(CNS(=O)(=O)c2cc(OCC(N)=O)c(C)cc2Cl)cc1	i
COCCn1c(C(=O)N(C)C)cc2c1C[C@H]1CN(C(=O)c3ccccc3)[C@@](Cc3ccc(OC)cc3)(C(=O)OC)[C@@H]21	i
Cc1cc(Cl)ccc1OC(C)c1nnc(N)s1 (stereo not drawn)	i
COc1ccc(C2=NOC(C(=O)NCc3cccs3)C2)cc1 (stereo not drawn)	i
COc1ccc(-c2cc(C(=O)Nc3cc(C)nn3-c3ccccc3)no2)cc1	i
Cc1cc2nc(-c3cccc(NC(=O)c4ccc(Br)o4)c3)oc2cc1C	i
CCCCOc1ccc(-c2nc(=S)[nH][nH]2)cc1	i
Cc1ccc(CNc2ccc(CNc3ncn[nH]3)cc2)cc1	i
N#Cc1ccccc1Cn1c(=O)n(C2CCCC2)c(=O)c2ccccc21	i
Cn1c(SCC(=O)N2CCN(c3ccccc3)CC2)nnc1-c1ccco1	i
CCc1cc(OCCN2C(=O)NC(C)(C)C2=O)ccc1Cl	i
CN1/C(=C/C2CC(=O)N(c3ccc([N+](=O)[O-])cc3)C2=O)C(C)(C)c2ccccc21 (stereo not drawn)	i
C[C@@H](C(=O)NCC1CC1)[C@H]1C[C@]1(C)[C@H](NC(=O)OCc1ccccc1)c1ccccc1	i
COc1ccc(Cn2c(C)c(C)c(C#N)c2NC(=O)Nc2cccc(Cl)c2)cc1	i
COc1cc2c(cc1OC)C1=C(C#N)CC/C(=N\S(=O)(=O)c3cccc(Cl)c3)N1CC2	i
Cc1nn(CC2CCCCC2)c(N)c1-c1ccccc1	i

Given with each value named: entries from further up
> CN1CCN(CC(=O)NC2CCCCC2)CC1
  MT1-MMP reporter = i

> COC(=O)[C@@]1(Cc2ccc(OC)cc2)[C@H]2c3cc(C(=O)N(C)C)[nH]c3C[C@H]2CN1C(=O)c1ccccc1
  MT1-MMP reporter = i

Continued:
SMILES	MT1-MMP reporter
Cc1cccc(CN2CCN(CC(=O)NCCCN3CCN(c4ccc(F)cc4)CC3)C2=O)c1	i
O=C(Nc1ccccc1)c1c(F)c(F)c(F)c(F)c1F	i
CCOC(=O)c1ccc(NC(=O)CC2C(=O)N(c3ccc(F)cc3)C(=O)N2CCC(C)C)cc1 (stereo not drawn)	i
C=CCn1c(SCc2ccc3c(c2)OCO3)nc2scc(-c3ccco3)c2c1=O	i
CCC1=C(OC(=O)N(CC)CC)N2C(=O)OC(=NCCc3c[nH]c4ccccc34)[C@]2(Cc2ccccc2)[C@H]2C1=CC[C@H]1C(=O)N(C)C(=O)[C@H]12	i
CCCCCCCC1(C)NC(=O)N(c2ccccc2)N1 (stereo not drawn)	i
COc1ccc2nc(N3CCOCC3)cc(C)c2c1	i
CC1CN(C2CCN(C(=O)c3cccc(Cl)c3)CC2)CC(C)O1 (stereo not drawn)	i
COC(=O)c1ccc(C(NC(=O)OCc2ccccc2)/C(I)=C/[C@@H](C)C(=O)O)cc1 (stereo partly drawn)	i
Cc1cccc(NS(=O)(=O)c2cc(C(=O)N3CCN(C)CC3)ccc2C)c1	i
FC(F)(F)c1cc(-c2ccco2)nc(NCc2ccc(Cl)cc2)n1	i
CCOC(=O)c1c(C=O)c(C)n(Cc2ccccc2)c1C	i
COc1ccc(N2CCN(C(=O)CCCn3c(=O)[nH]c4cc(Cl)ccc4c3=O)CC2)cc1	i
CSc1cccc(NC(=O)Nc2ccc(Cl)cc2)c1	i
CCCCCCN(C(=O)CCCCCN1C(=O)NC(c2ccc3ccccc3c2)C(C(=O)OCc2ccccc2)=C1C)C(C(=O)NCCCC)c1ccc(OCC(=O)OC)c(C(=O)OC)c1 (stereo not drawn)	i
CCOC(=O)N1CCN(C(=O)C2CCCN(S(=O)(=O)c3ccccc3)C2)CC1 (stereo not drawn)	i
COc1ccccc1CNC(=O)C(CCSC)NC(=O)C1CCC(C)CC1 (stereo not drawn)	i
Cc1cc(NS(=O)(=O)c2ccc(NC(=O)c3oc4ccccc4c3C)cc2)no1	i

Random excerpt: 3 records from the list, in no set order.
SMILES	MT1-MMP reporter
COc1ccc(N2CCN(C(=O)CCCn3c(=O)[nH]c4cc(Cl)ccc4c3=O)CC2)cc1	i
COC(=O)c1ccc(C(NC(=O)OCc2ccccc2)/C(I)=C/[C@@H](C)C(=O)O)cc1 (stereo partly drawn)	i
O=C(Nc1ccccc1)c1c(F)c(F)c(F)c(F)c1F	i
